Screening data as filed in PubChem BioAssay.
HPGD block = inhibitors of human 15-hydroxyprostaglandin dehydrogenase (HPGD) | purified HPGD, NADH fluorescence kinetic, PGE2 substrate | Potency, µM, without a hit: at the top dose activity change, negative = inhibition, usual class: inhibitors | P15428 | 150,000 compounds, 4.3% hits; active = well fitted inhibition curve with a large enough effect (not every such curve was filed as active); inconclusive = small, poorly fitted or top-dose-only effect, or another doubt; inactive = no such curve, though single readings can be large or run the other way;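 further: top concentration of the series not given in the record; plate controls included wells without enzyme; inactives centre near -10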
Target sequence (P15428 whole entry, looked up): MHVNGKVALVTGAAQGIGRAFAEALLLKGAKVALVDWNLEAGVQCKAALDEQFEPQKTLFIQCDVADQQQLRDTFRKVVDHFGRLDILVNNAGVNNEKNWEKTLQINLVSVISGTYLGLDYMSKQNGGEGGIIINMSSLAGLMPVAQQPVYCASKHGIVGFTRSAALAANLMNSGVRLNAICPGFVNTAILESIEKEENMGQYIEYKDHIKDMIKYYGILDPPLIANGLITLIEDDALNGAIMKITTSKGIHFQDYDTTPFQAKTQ
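NADH formation kinetics: reaction with 30 uM PGE2 and 1 mM NAD+ (final), 20 nM enzyme, Tris-HCl pH 8 with Tween 20, after 15 min compound preincubation at room temperature. Fluorescence change, last versus first of five reads.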
Active calls of the source: *; u = inconclusive; & = joins results of further samples. On the % scale 0 is the no-effect control and ±100 the full control effect; potency means the concentration at half of the fitted maximal effect.

Preview (2 entries):
HPGD block	molecule
-20%	N#CC1(C#N)C2=C(CCCC2)NC(c2ccccc2)C1(C#N)C#N (centres undefined)
-4%	CN(C)S(=O)(=O)c1ccc(C(=O)OCC(=O)Nc2sc3c(c2C#N)CCCCC3)cc1

Results, from the first entry:
HPGD block	molecule
-20%	N#CC1(C#N)C2=C(CCCC2)NC(c2ccccc2)C1(C#N)C#N (centres undefined)
-4%	CN(C)S(=O)(=O)c1ccc(C(=O)OCC(=O)Nc2sc3c(c2C#N)CCCCC3)cc1
-6%	CCC(=O)Nc1c(C)ccc2nsnc12
-2%	CCN(CC)C(=O)/C(=C/c1ccc2c(c1)OCO2)NC(=O)c1ccc(Br)cc1
-18%	CC(C)(C)c1cnnn1-c1ccc(/C=N/Nc2ccc([N+](=O)[O-])cc2)cc1
-5%	CS(=O)(=O)NCC(c1cccnc1)N1CCN(c2ccc(F)cc2)CC1 (centres undefined)
-2%	CC(=O)OCC(=O)[C@@]1(O)[C@H](OC(C)=O)C[C@H]2[C@@H]3CCC4=CC(=O)C=C[C@]4(C)[C@@]3(F)[C@@H](O)C[C@@]21C
-21%	CCCn1c2ccccc2c2nnc(SCC(=O)Nc3c(C)n(C)n(-c4ccccc4)c3=O)nc21
-1%	CCOc1cc(N2CCOCC2)c(OCC)cc1NC(=O)COC(=O)c1cc(C)cc(C)c1
-1%	N#Cc1cccc(CSc2nnc(CCCO)n2-c2ccccc2)c1
-12%	CCOC(=O)C1CCN(C(=O)COC(=O)COc2ccccc2OC)CC1
7.9µM*	O=c1cc(CSc2nnc(-c3ccccc3)o2)c2ccccc2[nH]1
14µM*	C=CCNc1ncnc2c1cnn2-c1ccc(C)cc1C
16µM*	Oc1ccc(/C=N/Nc2cccc3cccnc23)c(O)c1
-12%	CCOC(=O)c1cnc(SCc2nc(N)nc(Nc3ccc(OC)cc3)n2)nc1N
-17%	CC(=O)c1cccc(NC(=O)Nc2cc3sccc3n2C)c1
-23%	Cc1ccc2cc(CN(Cc3ccco3)C(=O)NC3CCCCC3)c(=O)[nH]c2c1C
-5%	C=C(C)c1cccc(C(C)(C)NC(=O)N2CCCC(C(N)=O)C2)c1 (centres undefined)
-3%	Cc1ccc(S(=O)(=O)CCC(=O)OC(C)C(=O)c2c(C)[nH]c3ccccc23)cc1 (centres undefined)
-7%	COc1ccc(S(=O)(=O)N2CCOCC2)cc1NC(=O)CSc1n[nH]c(=O)n1C1CC1
-16%	c1ccc2c(c1)nc1sccn12
-7%	CSC1=C(C#N)C(c2ccccc2Cl)C2=C(CCCC2=O)N1 (centres undefined)
-4%	O=C1CC(c2ccccc2)n2nc(NC(=O)C3CCCO3)nc2N1 (centres undefined)
-6%	COc1ccc(-n2c(-c3ccc(Br)cc3)c[n+]3c2CCc2ccccc2-3)cc1
-7%	O=C(Nc1ccc2c(c1)nc1n2CCSC1)c1ccccc1
-8%	CC(C)Nc1nc(Cl)nc(N(C#N)CN2C(=O)c3ccccc3C2=O)n1
-17%	O=C(CCSc1nc(-c2ccco2)cc(C(F)(F)F)n1)N1CCN(c2ccccn2)CC1
9%	CC(C)(C)NC(=O)CN(Cc1cccs1)C(=O)CCC(=O)Nc1nccs1
-3%	FC(F)(F)c1ccc(CN2C[C@@H]3C(c4ccc(Cl)nc4)C4(c5ccccc5)CC3(C4)[C@H]2c2ccccc2)cc1 (some centres undefined)
-13%	CCn1c(SC)nc(O)c(C(c2ccc(OC)c(O)c2)c2c(O)nc(SC)n(CC)c2=O)c1=O
-10%	COc1ccc(-n2nnnc2SCC(=O)Nc2ccccc2)cc1
u	CNC(=S)SCCOc1ccccc1C
0%	CN(C)C(=O)CNC(=O)C1CCCCC1
-1%	O=C(Nc1ccccc1C(=O)N1CCCC1)c1ccccc1
-6%	CC(=O)Nc1sc2c(c1C(N)=O)CCCC2
-5%	CC(NC(=O)NC(N)=O)(C(F)(F)F)C(F)(F)F
-6%	Cc1scc(C(=O)NNC(=S)NCC2CCCO2)c1-c1ccccc1 (centres undefined)
u	Cc1nc(NCCO)c2nc(-c3ccccc3)n(CCCN(C)C)c2n1
-8%	COC(=O)c1cn(Nc2ncc(C(F)(F)F)cc2Cl)c(=O)c2ccccc12
-6%	O=c1cc(CSc2ccccn2)[nH]c(=O)[nH]1
-12%	COC(=O)c1[nH]c2cc(OC)ccc2c1NC(=O)CCN1CCN(c2ccccc2)CC1
-8%	O=C1N(Nc2ccccc2)C(c2ccc(Br)cc2)C12CCCC2 (centres undefined)
-10%	Cc1ccc(C)c(OCC(=O)Nc2cccc(C(=O)O)c2)c1C
-13%	CC(C)(C)N(C(=O)Cn1nnc(-c2ccc(F)cc2)n1)C(C(=O)NC1CCCC1)c1ccncc1 (centres undefined)
-7%	CCOC(=O)CSc1nnc(CNC(=O)c2ccc(OC)c(OC)c2)n1C
-12%	Cc1cc(-c2ccccc2N)n[nH]1
u	Cc1cc(=O)oc2cc(OCC(=O)NCCc3nc4ccccc4[nH]3)ccc12
25µM*	CC(C)=CCc1c(O)cc2occ(-c3ccc4c(c3)OCO4)c(=O)c2c1O
0%	O=C(CN1CCOCC1)c1c[nH]c2ccccc12
u	CC(=O)N1CC=C2C(C#N)=C(N)C(C#N)(C#N)C(CCc3ccccc3)C2C1 (centres undefined)
-20%	COCCCNc1ccnc2c(Cl)cccc12
-4%	CCOc1ncccc1C(=O)Oc1ccc2c(c1)OCO2
u	CNc1ncncc1-c1ccc(C(=O)N(C)C)cc1
-2%	CC(C)c1ccc2c(c1)CC[C@@H]1[C@@](C)(CN)CCC[C@]21C
-3%	CCC1CCCCN1CCNC(=O)C1CCN(S(=O)(=O)c2c(C)noc2C)CC1 (centres undefined)
-11%	Cc1cc2c(c(=O)o1)C(C(C)C)C(C#N)=C(N)O2 (centres undefined)
-13%	Cc1nnc(NC(=O)CCC(=O)NCc2ccco2)s1
-12%	Cc1nc(SCC(=O)N2CCc3ccccc3C2)c2c(C)c(C)sc2n1
-9%	CN1CCN(C2=C(Cl)C(=O)N(c3ccc(Cl)cc3)C2=O)CC1
-18%	CC1=N/C(=C\c2ccc3c(c2)OCO3)C(=O)N1c1ccc(C(=O)O)cc1

The list continues.
HPGD block	molecule
-15%	CCOC(=O)N1CCN(c2c(NCCc3ccc(OC)c(OC)c3)c(=O)c2=O)CC1
2.2µM*	Cc1ccc(Nc2ccc(C(=O)N3CCCC3)cn2)c(C)c1
-12%&-13%	Cc1cc2nc(N)sc2cc1C
-11%	Cc1ccccc1/C(N)=N/O
-25%	Cc1cc(C(=O)COC(=O)Cc2n[nH]c(=O)c3ccccc23)c(C)n1-c1ccc2c(c1)OCCO2
-5%	O=S(=O)(c1ccc(Oc2ccc3oc4ccccc4c3c2)nc1)N1CCCC1
-18%	Cc1ccc(NC(=O)C(C)c2ccc(-c3ccccc3)c(F)c2)cc1 (centres undefined)
u	O=C(COc1ccc2ccc(=O)oc2c1)Nc1ccc(N2CCOCC2)cc1
-6%	Cc1ccc(NC(=O)C[n+]2ccccc2)cc1[N+](=O)[O-]
-4%	CC(=O)OC/C=C(\C)CC/C=C(\C)CC/C=C(\C)CC/C=C(\C)CC/C=C(\C)CC/C=C(\C)CC/C=C(\C)CC/C=C(\C)CCC=C(C)C
0%	Cc1ccc(S(=O)(=O)N2CCN(C)CC2)c(C)c1
-6%	Cc1cccc(C)c1NC(=O)N1CCC(c2nc3ccccc3o2)CC1
-4%	COc1ccc(Oc2nc(C)cc(C)c2S(=O)(=O)c2ccc(C)cc2)cc1
3%	CCc1ccc(OCCOCC(O)CN2CCN(Cc3ccc(Cl)cc3)CC2)cc1 (centres undefined)
-10%	COc1ccc(CN(C(=O)CN2C(=O)c3ccccc3S2(=O)=O)C(C(=O)NCC2CCCO2)c2ccncc2)cc1 (centres undefined)
25µM*	CCOc1ccc(C2C(C#N)=C(N)SC(N)=C2C#N)cc1OC
-8%	CCOC(=O)c1[nH]c(C)c(C(=O)O)c1C
u	CCCCCCCCNC(=O)/C(C#N)=C/c1ccccc1[N+](=O)[O-]
-10%	CCN1CCCC1CN(Cc1cc2ccc(C)cc2[nH]c1=O)C(=S)Nc1ccccc1OC (centres undefined)
-3%&-15%	O=C(O)c1ccc(O)cc1O
u	OCCOCCNc1ncnc2sc(-c3ccccc3)cc12
-5%	CSc1nsc(/C=C/Nc2cccc(Cl)c2)c1C#N
-12%	CCOC(=O)N1CCN(S(=O)(=O)c2cc(C)c(C)cc2C)CC1
u	CC(=O)c1cccc(NC(=S)NC(=O)c2ccccc2)c1
-9%	Cc1ccc(C)c(OCC(=O)NCCNC(=O)COc2cc(C)ccc2C)c1
-18%	NC(=O)CSc1oc(-c2ccc(F)cc2)nc1S(=O)(=O)c1ccccc1
-6%	O=C1OCc2cccc([N+](=O)[O-])c21
-11%	O=C(O)CC(NC(=O)c1ccccc1NC(=O)c1ccccc1)C(=O)O (centres undefined)
-3%	O=C(c1cccs1)N1CCCC(c2ccccc2)C1 (centres undefined)
-10%	C=CCSc1nnc(-c2cc3c(C(F)(F)F)nn(C)c3s2)n1C
-4%	CC(=O)Nc1cc(C(=O)N(C)Cc2ccco2)ccc1Sc1ccc(C)cc1
0%	COCCn1c(SCC(=O)Nc2ccccc2)nc2c1c(=O)[nH]c(=O)n2C
-4%	O=C(CS(=O)(=O)c1cn(Cc2ccc(Cl)cc2)c2ccccc12)N1CCOCC1
-7%	O=C(Nc1ccon1)c1cccc(S(=O)(=O)N2CCCC2)c1
-20%	Cc1nc(C)n(CC(O)COc2ccc3cc(Br)ccc3c2)n1 (centres undefined)
-5%	COc1ccc(C(=O)OCC(=O)Nc2cc(C)on2)cc1S(=O)(=O)N1CCOCC1
-22%	Cc1ccc(P(=O)(CO)c2ccc(C)cc2)cc1
-9%	CCC(C(=O)Nc1nccs1)(C(F)(F)F)C(F)(F)F
u	COC(=O)c1cc(OC)nc2c1c(=O)n(C)c(=O)n2C
-21%	CCCN(CCC)C1=CC(=[N+]2CCCC2)CC(C)(C)C1
-17%	CCC(=O)c1cc(F)c(N2CCN(S(=O)(=O)c3ccccc3)CC2)cc1C
-6%	CSCCC(NC(N)=O)C(=O)NCC1CCCCC1 (centres undefined)
-10%	C#CC(CO)N(CCN(Cc1ccccc1)C(C#C)CO)Cc1ccccc1 (centres undefined)
-13%	COCC(C)n1c(SCc2ccc(C(=O)OC)o2)nc2ccccc2c1=O (centres undefined)
4%	Nc1nc(Cl)cc(N2CCOCC2)n1
-22%	COc1ccc([N+](=O)[O-])cc1NC(=O)Cc1ccc(C)cc1
25µM*	O=C1/C(=C/c2cccs2)COc2ccccc21
-6%	O=C(NNC1CC(=O)N(c2cccc(Cl)c2)C1=O)c1cccs1 (centres undefined)
-11%	C#CC[N+](C)(C)CCCCCCCCC
u	N#CCCS(=O)(=O)c1nnnn1-c1ccccc1
-7%	CCOC(=O)c1ccccc1NC(=O)COC
-2%	Cc1ccc(Nc2nc(N)nc(CSc3nccn3C)n2)c(C)c1
0%	CCOc1ccc(NC(=O)C2CC(=O)N(CC)C(=Nc3ccc4c(c3)OCO4)S2)cc1 (centres undefined)
-8%	COc1cc2c(cc1OC)CN(C(=O)CC1CC3CCC1C3)CC2 (centres undefined)
-14%	O=c1cnc2cnc(Oc3cccc(Cl)c3)nc2n1Cc1ccc(F)cc1
-4%	Cc1ccc(N2CCN(C(=O)CN3C(=O)c4ccccc4C3=O)CC2)cc1
-15%	COC(=O)N1CCN(c2ccc(C(C)=O)cc2)CC1
-5%	O=C(Nc1cccc2c1CCCC2)C1CCCN(S(=O)(=O)c2cccc3nonc23)C1 (centres undefined)
-16%	CCOC(=O)/C(C(N)=NC(C)C)=C(\O)c1ccccc1
-10%	Cc1cc(C)cc(N(C(=O)CNC(=O)c2ccco2)C(C(=O)NC2CCCC2)c2cccnc2)c1 (centres undefined)

6 compounds already listed, sorted by their value in HPGD block, lowest first.
HPGD block	molecule
-15%	COC(=O)N1CCN(c2ccc(C(C)=O)cc2)CC1
-10%	Cc1cc(C)cc(N(C(=O)CNC(=O)c2ccco2)C(C(=O)NC2CCCC2)c2cccnc2)c1 (centres undefined)
-8%	COc1cc2c(cc1OC)CN(C(=O)CC1CC3CCC1C3)CC2 (centres undefined)
-7%	CCOC(=O)c1ccccc1NC(=O)COC
-5%	O=C(Nc1cccc2c1CCCC2)C1CCCN(S(=O)(=O)c2cccc3nonc23)C1 (centres undefined)
-2%	Cc1ccc(Nc2nc(N)nc(CSc3nccn3C)n2)c(C)c1

The results go on:
HPGD block	molecule
0%	O=C1Nc2c(c(=O)[nH]c(=O)n2-c2ccccc2F)C(C(F)(F)F)(C(F)(F)F)N1
1%	CCn1c(Cc2ccccc2)nnc1SCC(=O)Nc1ccccc1N1CCOCC1
-20%	CC(=O)c1cccc(NS(=O)(=O)c2ccc(N/C=C\C(=O)c3ccc(F)cc3)cc2)c1
-12%	COc1ccc(CCNC(=O)c2nnc(Cc3c(F)cccc3Cl)o2)cc1OC
-9%	COc1cc(O)c(C(=O)O)c(O)c1
25µM*	Cc1ccc(OCCCC(=O)NCc2ccco2)cc1
u	CCCn1c(-c2ccc(F)cc2)nc2c(NCCCCN(C)C)nc(C)nc21
-3%	O=C1Nc2ccccc2C12OCCCO2
u	O=C(c1cnccn1)N1CCC2(CC1)CN(c1ncccn1)C2
u	Nc1c(Cl)ncnc1N/N=C/c1ccnc2ccccc12
-10%	CCOC(=O)c1cnc2ccc(C)cc2c1Sc1ccccc1
-5%	Cc1ccc(NC(=O)CCc2c(C)nc3ncnn3c2C)nc1
3%	O=C(c1ccc(Cl)c([N+](=O)[O-])c1)N(Cc1ccc(Cl)cc1)C1CCS(=O)(=O)C1 (centres undefined)

Already shown: entries from further up.
HPGD block	molecule
0%	O=C1Nc2c(c(=O)[nH]c(=O)n2-c2ccccc2F)C(C(F)(F)F)(C(F)(F)F)N1
1%	CCn1c(Cc2ccccc2)nnc1SCC(=O)Nc1ccccc1N1CCOCC1

An excerpt (hit frequency here may not be typical).
